# HCMV NEC inh = inhibitors of HCMV UL50-UL53 interaction, biochemical, HTRF; HCMV UL50-UL53 nuclear egress complex (human cytomegalovirus); normalized percent inhibition; inhibition, % (concentration not given with the values); 0.15% of 190,000 active;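 active = both replicates at 50% or more, plus weaker picks with an unusually low signal ratio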;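 note: stock transfer was 100 nL into about 20 µL; 0% = negative control wells and 100% = wells with untagged competitor protein; inactives centre near -12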
# GIV-Gai inh = inhibitors of GIV peptide binding to Galpha-i3, primary screen, biochemical, fluorescence polarization, FITC-GIV GBA peptide, rat Galphai3; 90 min; hits give low values; scaled: aluminum fluoride 0%, vehicle 100%; percent of control (FP), % (no concentration beside the values); 0.42% of 210,000 active; AID 1224905, 2016;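 active = replicate mean at 85% of control or lower, very high polarization wells dropped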;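 note: wells of about 15 µL received 100 nL stock; the first replicate is given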
# Target sequence (P08753 whole entry, looked up): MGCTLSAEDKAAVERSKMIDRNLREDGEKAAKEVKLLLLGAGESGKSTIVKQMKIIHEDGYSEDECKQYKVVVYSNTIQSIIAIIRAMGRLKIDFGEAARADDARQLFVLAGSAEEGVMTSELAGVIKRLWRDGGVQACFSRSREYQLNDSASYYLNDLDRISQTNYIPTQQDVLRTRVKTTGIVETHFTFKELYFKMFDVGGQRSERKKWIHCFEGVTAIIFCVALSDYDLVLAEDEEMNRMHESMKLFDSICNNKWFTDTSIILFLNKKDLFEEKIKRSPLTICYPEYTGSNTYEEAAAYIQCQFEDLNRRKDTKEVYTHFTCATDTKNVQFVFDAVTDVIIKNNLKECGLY
# Sa growth inh = S. aureus growth inhibition at 42 and 30 °C, primary screen, LtaS inhibitor project, RN4220, two temperatures; OD600, 20 h, 42 °C; hits give low values; relative growth, % (test concentration not listed); 0.53% of 170,000 active; AID 720641, 2013;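 active = growth at 42 °C up to 50% and 20 or more points under that at 30 °C, or under 10% at both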;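 note: 300 nL library stock went into each well; scaled to the means of positive and negative controls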
# Sa growth inh second temp = second read-out of Sa growth inh, no call of its own (marks repeat the call); relative growth, %; measured here: growth at 30 °C;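 optical density after 20 h as mean of two plates; 100% = untreated growth and lower means inhibition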
# * = called active by the depositor; · = no result given; & = joins results of further samples. Compounds were not picked by outcome; 0.83% or so of the library scored in one or more.
# Start of the data: the first 6 entries as a preview:
item	Molecule	HCMV NEC inh	GIV-Gai inh	Sa growth inh	Sa growth inh second temp
1	COc1cc(NC(=O)c2cc3nc(-c4ccccc4)cc(-c4ccccc4)n3n2)c(OC)cc1Cl	-32	104	101	93
2	COc1cccc(NC(=O)C2C3C=CC4(O3)C2C(=O)N(Cc2ccc3c(c2)OCO3)C4C(=O)NC2CCCCC2C)c1 (stereo unspecified)	-6	100	104	96
3	COc1cc(N=Cc2cccs2)c(OC)cc1Cl	12	107	91	90
4	Cc1cccc(NC(=O)CN2C(=O)C3(SCC(=O)N3c3ccccc3)c3ccccc32)c1 (stereo unspecified)	·	102	110	100
5	Cc1nnc2c3ccccc3nc(Nc3ccc(N4CCOCC4)cc3)n12	-25&-2	102&109	117	97
6	CCOc1cc(CN2CCCC2c2ccc(Cl)cc2)ccc1O (stereo unspecified)	-18	110	·	·

# All compounds of this part (from the top)
item	Molecule	HCMV NEC inh	GIV-Gai inh	Sa growth inh	Sa growth inh second temp
1	COc1cc(NC(=O)c2cc3nc(-c4ccccc4)cc(-c4ccccc4)n3n2)c(OC)cc1Cl	-32	104	101	93
2	COc1cccc(NC(=O)C2C3C=CC4(O3)C2C(=O)N(Cc2ccc3c(c2)OCO3)C4C(=O)NC2CCCCC2C)c1 (stereo unspecified)	-6	100	104	96
3	COc1cc(N=Cc2cccs2)c(OC)cc1Cl	12	107	91	90
4	Cc1cccc(NC(=O)CN2C(=O)C3(SCC(=O)N3c3ccccc3)c3ccccc32)c1 (stereo unspecified)	·	102	110	100
5	Cc1nnc2c3ccccc3nc(Nc3ccc(N4CCOCC4)cc3)n12	-25&-2	102&109	117	97
6	CCOc1cc(CN2CCCC2c2ccc(Cl)cc2)ccc1O (stereo unspecified)	-18	110	·	·
7	COc1cccc(OC)c1C(=O)N1CCN(C(=O)COc2ccc(Cl)cc2)CC1	·	98	106	89
8	Cn1c(=O)c2c(nc(NCc3ccco3)n2Cc2ccc(Br)cc2)n(C)c1=O	-24	103	·	·
9	CCC(C)SCc1nc2ccccc2[nH]1 (stereo unspecified)	0	·	105	93
10	Cc1oc(C(C)(C)C)cc1-c1cc(N)n(-c2ccc(S(N)(=O)=O)cc2)n1	-16	112	102	98
11	O=C(NCC1CCCO1)c1cc(-c2cccs2)nc2ccccc12 (stereo unspecified)	-89	·	124	74
12	O=C(NCCc1ccc(Cl)cc1)C1CCCN(C(=O)c2cc(-c3cccnc3)n[nH]2)C1 (stereo unspecified)	-30	101	·	·
13	CC1=NCC(=O)Nc2cc3c(cc21)OCCO3	-11	111	64	76
14	Cc1ccc(Cl)cc1NCc1nc2nc(C)c(C)c(=O)n2[nH]1	-32	100	·	·
15	CCOc1ccc(NC(=O)c2cnn(-c3ccccc3)c2NC(=O)c2ccco2)cc1	2	105	116	110
16	CCCCN1C(=O)N(c2nnc(C(C)(C)C)s2)C(=O)C1c1ccc(Cl)c(Cl)c1 (stereo unspecified)	0	103	113	100
17	Cc1nc(SCc2ccc(C(=O)O)cc2)nc2c1CCCC2	-3	97	90	72
18	COc1ccc(-n2nc3c(N4CCC(C(=O)N5CCC(C)CC5)CC4)nnc(C)c3c2C)cc1	·	107	90	88
19	CN(C)c1ccc(CN(CC2CCCO2)S(=O)(=O)c2cccs2)cc1 (stereo unspecified)	-3	·	108	86
20	CCOCCOC(=O)C1=C(C)NC2=C(C(=O)CCC2)C1c1cc(Br)c(O)c(OCC)c1 (stereo unspecified)	-3	104	·	·
21	COc1cccc(NC(=O)c2sc3ncnc(N4CCc5ccccc5C4)c3c2C)c1	·	103	108	88
22	N=c1c2c3c(sc2ncn1CCCn1ccnc1)CCCC3	-25	107	92	81
23	CCOC(=O)c1ccc(NC(=O)CC2C(=O)N(c3ccc(C)cc3)C(=O)N2C2CCCC2)cc1 (stereo unspecified)	·	105	120	107
24	COc1ccc(CCNS(=O)(=O)c2ccc3c(c2)CC(C)N3C(=O)C2CCC2)cc1OC (stereo unspecified)	·	106	110	96
25	CCCn1c(=O)c2ccc(Cl)cc2n2c(=O)n(CC(=O)NC3CCCCC3)nc12	-8	102	·	·
26	CCOC(=O)c1c(-c2ccccc2)oc2c1cc(OC(=O)c1cccc(OC)c1)c1ccccc12	3	109	·	·
27	COc1cc(/C=C2\SC(=S)N(C3CCS(=O)(=O)C3)C2=O)cc(Br)c1O (stereo unspecified)	-45	200	101	79
28	CCSCCOC(=O)C1=C(C)NC2=C(C(=O)CC(c3ccc(OC)cc3)C2)C1c1ccc(F)cc1 (stereo unspecified)	-11	102	·	·
29	CN(C)C(CNC(=O)Cc1cccc(C(F)(F)F)c1)c1ccco1 (stereo unspecified)	-26	·	105	89
30	COc1cc2ccccc2cc1C(=O)OCC(=O)c1ccc(Cl)cc1	1	·	121	87
31	Cc1ccc2cccc(I)c2n1	-10	104	97	100
32	COc1ccc(-c2noc(CNC(=O)c3ccccc3Br)n2)cc1	-18	103	107	88
33	O=C1CC(c2ccccc2)Cc2[nH]c(=O)c(-c3nc(-c4ccc(Cl)c(Cl)c4)cs3)cc21 (stereo unspecified)	-2	119	93	84
34	O=C(COc1cccc(-c2nc(-c3ccccc3)no2)c1)NC1CCCCC1	0	107	·	·
35	O=C(Cn1cnc2ccccc21)Nc1ccccc1	-24	97	89	78
36	Cc1ccc(S(=O)(=O)c2ncsc2Cl)cc1	-8	111	102	81
37	O=C(Nc1cccc2ccccc12)c1ccc(C(F)(F)F)cc1	-3	·	100	100
38	CCOC(=O)c1ccc(NC(=O)CN2C(=O)/C(=C\c3ccccc3)SC2=S)cc1	-12	103	·	·
39	COc1ccccc1C(=O)N(C(C)C)C(C)C	-18	·	92	84
40	CCc1nn2c(=O)cc(COC(=O)CNC(=O)c3cccc(OC)c3)nc2s1	-29	106	·	·
41	CC1=Nc2cccc3cccc(c23)N1	-48	100	81	54
42	CC(C)C(=O)Nc1cccc(-c2nc3ncccc3o2)c1	·	98	119	94
43	CN1C(=O)CCc2cc(NC(=O)C(C)(C)C)ccc21	-29	104	·	·
44	COc1cc(OC)cc(-c2nn3c(-c4ccccn4)nnc3s2)c1	-13	108	·	·
45	CN1/C(=C\C(=O)COC(=O)c2cccc(S(=O)(=O)N3CCOCC3)c2)C(C)(C)c2ccccc21	33	·	107	98
46	CCC1(C)NC(C(=O)O)Cc2c1[nH]c1ccccc21 (stereo unspecified)	-17	102	93	85
47	Cn1c2c(cc(C#N)c1=O)COC(C)(C)C2	-1	101	99	99
48	Cc1cccc(Cn2cc(/C=C(/C#N)C(=O)Nc3cccc(Cl)c3)c3ccccc32)c1	-60	106	90	82
49	N#CCC(=O)Nc1ccc(F)cc1F	-3	·	95	88
50	COc1cc(Cl)c(S(=O)(=O)N2CCN(c3c(C)cccc3C)CC2)cc1Cl	4	106	103	100
51	Cc1ccc(NC(=O)CSc2ncc3c(n2)-c2ccccc2N(C)S3(=O)=O)c(Cl)c1	·	103	97	92
52	O=C(Cn1cc2c(n1)CCCCC2)NCCCN1CCCC1=O	2	104	108	84
53	C[S+](C)c1c(-c2ccccc2)nc2ccccn12	-14	·	89	89
54	COc1cccc2c1Oc1ncccc1N(C(=O)CCC(=O)NC1CCCCC1)C2	-26	103	90	90
55	CCOc1ccc(-n2c(-c3ccco3)nc3c(cnn3-c3ccc(C)cc3)c2=O)cc1	-7	97	106	89
56	COc1cc2c(C(=O)N3CCN(c4ccccc4)CC3)cn(CC(C)C)c(=O)c2cc1OC	·	101	115	84
57	CCOC(=O)c1ccc(NC(=O)CN2CC(=O)N3CCCC3C2=O)cc1 (stereo unspecified)	-9	99	·	·
58	O=C(CSC1=NS(=O)(=O)c2ccccc2N1)N1CCCc2ccccc21	-7	102	104	84
59	CCN1CCN(c2ncnc3sc(C(=O)NCCc4c[nH]c5ccc(C)cc45)c(C)c23)CC1	-59	105	·	·
60	CCOc1ccc(NC(=O)CCC(=O)O)cc1	-2	·	96	100

# Additional compounds:
item	Molecule	HCMV NEC inh	GIV-Gai inh	Sa growth inh	Sa growth inh second temp
61	CCCNC(=O)Cn1c(=O)c2cccn2c2cccnc21	·	99	73	87
62	CCCCNC(=O)NS(=O)(=O)c1ccc(C)cc1	-25&-10&-4&-10&-7&-14&-22	101&101	93&101	84&97
63	CCOc1ccc(NC(=O)CSc2nccn2-c2cccc(C)c2C)cc1	·	103	121	103
64	Cc1cc2nc(-c3ccc(Br)cc3)cc(C(F)(F)F)n2n1	-29	106	117	90
65	Cc1ccccc1Nc1cc(N2CCCC2)c2nonc2c1[N+](=O)[O-]	-17	96	·	·
66	CCOC(=O)c1cnn(-c2ccccc2)c1NC(=O)C(F)(F)F	-4	97	106	104
67	CCCc1[nH]nc2c1C(CCC)C(C#N)=C(N)O2 (stereo unspecified)	-6	103	95	72
68	Cc1ccc(-c2nn3c(=O)cc(CNC(=O)Nc4ccc5c(c4)OCO5)nc3s2)cc1	-18	102	·	·
69	CCc1ccccc1NC(=O)C1CCN(c2nn3cc(-c4ccc(C)cc4)nc3s2)CC1	-18	104	106	90
70	CCOc1ccccc1NC(=O)Cn1cnc2onc(-c3ccc(F)cc3)c2c1=O	·	101	84	88
71	CCNC(=O)CN1C(=O)C(C)(C)c2cc(S(=O)(=O)N3CCCCC3)ccc21	-1	104	·	·
72	CCN1CCc2c(sc(-n3cccc3)c2CNC(=O)Nc2cc(Cl)ccc2C(=O)OC)C1	-21	101	95	83
73	O=C(COc1ccc2c3c(c(=O)oc2c1)CCC3)N1CCCC1	3	·	68	91
74	CC1(C)Oc2ccc(C(=O)N3CCCC3)cc2N(CC(=O)N2CCCCC2)C1=O	-23	103	103	85
75	Cc1ccc(S(=O)(=O)N(Cc2c(F)cccc2Cl)c2nc3nc(C)c(Cl)c(C)n3n2)cc1	-14	100	·	·
76	CCc1ccc(CNC(=O)c2ccc(NC(=O)N3CCCCc4ccccc43)cc2)cc1	·	95	80	89
77	CCN1CCN(c2ncc(C(=O)OC)c3ccccc23)CC1	-56	104	100	89
78	C=CCNC(=O)CSc1nc2cc(C)cc(C)c2cc1C#N	-11	107	103	111
79	Cn1c(=O)c2c(nc3n2CC(C(C)(C)C)=NN3Cc2cccc3ccccc23)n(C)c1=O	-26	99	92	92
80	C=CCN(C(=O)c1ccc(Cl)cc1)c1ccccc1C(=O)NCC(=O)O	-14	102	102	88
81	O=C(O)Cn1c2ccc(Br)cc2c2nc3ccccc3nc21	·	103	112	108
82	O=C(c1cccc(Br)c1)N1CCN(c2cc(=O)n3nc(-c4ccccc4)sc3n2)CC1	-10	106	·	·
83	Cc1nn(C(C)C(=O)Nc2ccccc2C(F)(F)F)c(=O)c2c1sc1ccccc12 (stereo unspecified)	-3	102	113	99
84	COc1ccc(N2CCN(C(=O)c3cccn4c(=O)c5ccc(Cl)cc5nc34)CC2)cc1	·	112	122	100
85	Cc1cccc(C(c2sc3nc(-c4ccco4)nn3c2O)N2CCOCC2)c1 (stereo unspecified)	·	99	156	90
86	CCOC(=O)Cc1c(O)c2ccccc2[nH]c1=O	·	96&121	91	81
87	CCc1cccc(C(C)C)c1NC(=O)Nc1ccccc1	-24	96	95	86
88	CCOC(=O)N1CCN(c2cc3cc(OC)ccc3oc2=O)CC1	-16	104	95	78
89	CCC1C(=O)NN=C1C (stereo unspecified)	8	99	105	78
90	COc1ccc(NC(=O)c2cncc(NS(=O)(=O)c3ccc(C)cc3)c2)cc1OC	·	101	109	74

# Four of the compounds above, field by field:
(26) CCOC(=O)c1c(-c2ccccc2)oc2c1cc(OC(=O)c1cccc(OC)c1)c1ccccc12
  HCMV NEC inh: 3; GIV-Gai inh: 109; Sa growth inh: ·; Sa growth inh second temp: ·
(30) COc1cc2ccccc2cc1C(=O)OCC(=O)c1ccc(Cl)cc1
  HCMV NEC inh: 1; GIV-Gai inh: ·; Sa growth inh: 121; Sa growth inh second temp: 87
(73) O=C(COc1ccc2c3c(c(=O)oc2c1)CCC3)N1CCCC1
  HCMV NEC inh: 3; GIV-Gai inh: ·; Sa growth inh: 68; Sa growth inh second temp: 91
(87) CCc1cccc(C(C)C)c1NC(=O)Nc1ccccc1
  HCMV NEC inh: -24; GIV-Gai inh: 96; Sa growth inh: 95; Sa growth inh second temp: 86

# Continuation.
item	Molecule	HCMV NEC inh	GIV-Gai inh	Sa growth inh	Sa growth inh second temp
91	Cc1cccc(N(CC(N)=O)C2SC(=O)N(c3ccccc3)C2=O)c1 (stereo unspecified)	-21	98	89	77
92	Cc1cc(C)n2c(NC(C)C)c(-c3ccc(C)o3)nc2n1	·	103	87	70
93	COc1ccc2c(c1)c(CC(=O)OCC(=O)O)c(C)n2C(=O)c1ccc(Cl)cc1	-36&13&-32	101	97	92
94	CC(=O)Nc1ccc(NS(=O)(=O)c2ccc(Cl)s2)cc1	-3	109	102	93
